# A488 autofl = compound autofluorescence in A488 spectral region | compound autofluorescence, A488 spectral region, dye equivalency; stronger effect = higher value | AID 591 | max dye equivalency, M | 59,000 tested, 0.1% active; active = above 10 nM dye equivalent; inconclusive = 1 to 10 nM; inactive = 1 nM or less; about half of its hits are not listed in these tables;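 also: highest value over a series up to 38 µM; compound alone in buffer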
#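 Compounds pin-transferred into 100 mM Tris buffer, pH 8.0, incubated 15 min at room temperature, then imaged with 480 nm excitation/540 nm emission filters. Fluorescence converted to Alexa 488 dye-equivalent concentration via an on-plate six-point A488 standard curve.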
# TSHR ag = activates the human thyroid stimulating hormone receptor; P16473; HEK293-CNG-TSHR cells (CNG channel as cAMP sensor), membrane potential dye, cAMP; Potency, µM (top dose mostly 57.1 µM), inactives show at the top dose activation, hits mostly activators; 73,000 tested, 0.48% active; active = well fitted activation curve of enough size with the parental cells flat; inconclusive = any curve in the parental cells; inactive = parental cells flat and receptor cells flat or falling; also: potency is read from the fitted curve at half-maximal effect; % of control where 0% means no effect; weak receptor curves with flat parental cells got no call and are not listed
# Target sequence (P16473 whole entry, looked up): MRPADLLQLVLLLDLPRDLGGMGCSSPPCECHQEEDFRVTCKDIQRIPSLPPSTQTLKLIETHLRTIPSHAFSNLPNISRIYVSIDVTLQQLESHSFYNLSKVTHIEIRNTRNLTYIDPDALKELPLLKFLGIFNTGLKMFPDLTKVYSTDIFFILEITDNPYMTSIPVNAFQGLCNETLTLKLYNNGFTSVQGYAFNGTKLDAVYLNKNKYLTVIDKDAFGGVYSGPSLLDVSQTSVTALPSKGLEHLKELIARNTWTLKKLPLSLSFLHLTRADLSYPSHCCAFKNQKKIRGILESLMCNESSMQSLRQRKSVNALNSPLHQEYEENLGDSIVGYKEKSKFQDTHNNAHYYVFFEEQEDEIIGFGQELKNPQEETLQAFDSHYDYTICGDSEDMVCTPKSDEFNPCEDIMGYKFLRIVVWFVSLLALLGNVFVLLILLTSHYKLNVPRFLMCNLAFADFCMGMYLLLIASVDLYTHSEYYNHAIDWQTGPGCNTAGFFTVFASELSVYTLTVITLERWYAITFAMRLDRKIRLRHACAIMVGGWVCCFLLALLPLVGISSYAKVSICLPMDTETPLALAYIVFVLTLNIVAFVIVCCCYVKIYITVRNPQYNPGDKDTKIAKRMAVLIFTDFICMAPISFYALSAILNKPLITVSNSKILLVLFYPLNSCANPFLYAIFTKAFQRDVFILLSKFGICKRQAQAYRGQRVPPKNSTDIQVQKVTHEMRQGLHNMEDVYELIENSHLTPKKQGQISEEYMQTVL
#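 HEK 293 cells stably expressing TSHR and a modified CNG channel, with CNG-only parental cells as counterscreen, were preloaded 60 min at room temperature with membrane potential dye containing 100 uM RO 20-1724. Compound exposure was 30 min, and depolarization was read as fluorescence at 590 nm.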
# A647 fluor = compound fluoresces in the A647 spectral region. max dye-equivalent concentration, M. 59,000 tested, under 10 active. Compound fluorescence, A647 channel (570/671 nm), Tris buffer. AID 592; active means above 1 µM dye equivalent; inconclusive means 0.1 to 1 µM; inactive means 0.1 µM or less;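 also: values scaled relative to a standard on each plate; highest value over a series up to 38 µM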
#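 Spectral profiling of library compounds in pH 8.0 Tris: 15 min room-temperature incubation, single ex/em pair (570/671 nm), response normalized to Alexa 647 equivalents.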
# Resorufin fluor = compounds fluorescent in resorufin spectral region; Compound fluorescence, resorufin region 547/598 nm, buffer; stronger effect = higher value; max dye-equivalent concentration, M; 59,000 tested, 0.04% active; active = above 10 nM dye equivalent; inconclusive = 1 to 10 nM; inactive = 1 nM or less; a few of its hits are not listed in these tables; also: highest value over a series up to 38 µM
#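 Read-out: intrinsic compound fluorescence at ex 547/em 598 nm after 15 min at RT in pH 8.0 Tris (100 mM). Values expressed as resorufin-equivalent concentration from per-plate standard series.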
# AID923 = qHTS Assay for Allosteric/Competitive Inhibitors of Caspase-1: Spectroscopic Profiling in AFC Spectral Region; compound fluorescence, AFC spectral region (405/520 nm); almost no hit is shown here; AID 923, 2007; Potency, µM (highest dose often 57.5 µM), for the others: at the highest dose fluorescence increase, actives largely listed as activators; 75,000 tested, 1.1% active; active = well fitted activation curve with a large enough effect; inconclusive = small, poorly fitted or top-dose-only effect;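 also: potency is read from the fitted curve at half-maximal effect; 0% is about no effect; scaled to a free AFC standard on each plate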
#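 Titrations up to 57 uM read every 20 sec for 3 min (405/520 nm) with 50 nM caspase 1 and 5 uM Ac-WEHD-AFC, pH 7.5 HEPES buffer. Fluorescence-vs-time intercept gave baseline, scaled against on-plate AFC standard.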
# The depositor's hits bear a star; i = inactive; ? = inconclusive; . = not tested or not shown; & = joins results of further samples; [ ] = remark or other dose.
SMILES,A488 autofl,TSHR ag,A647 fluor,Resorufin fluor,AID923
CCCCNc1c(C(=O)OCC)c(C)nc2c1cnn2CC,i,0%[25.6 µM],5.4e-09&2.2e-09,i,-1.6%
CC(Sc1nc(N2CCCCC2)c2c(c1C#N)CCCC2)C(=O)O (centres undefined),i,.,1.3e-09,i,.
Cc1ccccc1C(=O)NCc1ccncc1,i,-5%,6.7e-09,i,-0.1%
Cc1ccc(CCN2CC(C(=O)NCCN3CCOCC3)CC2=O)cc1 (centres undefined),i,5%,1.7e-09,i,1.6%
Cc1cc(NC(=O)c2ccc3nc(C)sc3c2)no1,i,-3%,1.1e-09,i,-1.8%
COc1ccc(CN(CCN(C)C)Cc2ccccc2)c(OC)c1,i,?,3.9e-09,i,2.7%
Clc1ccccc1-c1nnc2sc(CCc3ccccc3)nn12,i,19%,1e-09,i,0.2%
OC1(c2cccc(C(F)(F)F)c2)CCNCC1,i,0%,4.2e-08,i,-0.1%
CC(=O)N1CCC[C@@]2(CCN(c3ccccc3)C2)C1,i,1%,1.5e-09,i,0.6%
Cc1cccc(N=C2NC(=O)/C(=C3/C(=O)N(C)c4ccccc43)S2)c1C,.,-29%,.,.,1.3%
COc1cc(C)nc(N(C)S(=O)(=O)c2ccccc2Cl)n1,i,.,9e-08,i,.
O=C1OC(NC(=O)c2ccccc2)C(N2CCOCC2)=C1Cl (centres undefined),i,-2%,1.2e-08,i,0.8%
CC(=O)NC1CC2CCCC(C1)N2CC(=O)NCc1ccc(F)cc1 (centres undefined),i,?,1e-09,i,-0.9%
COc1ccc(N2CCCn3c2nc2c3c(=O)n(Cc3ccccc3F)c(=O)n2C)c(OC)c1,i,5%,3.5e-08,i,-0.7%
CC(CCc1ccccc1)NC(=O)C1CCCN(C(=O)c2cc3sccc3n2C)C1 (centres undefined),i,?,3e-08,i,-1.1%
CCOc1ccc(N2C(=O)CC(NCCc3ccc(S(N)(=O)=O)cc3)C2=O)cc1 (centres undefined),.,-10%,.,.,-0.2%
COc1ccc(Cc2nnc(SCC(=O)NC3CCCCC3)n2C)cc1,i,.,1.7e-09,i,-1.5%
CCCS(=O)(=O)N1CCN(C(=O)c2cc(OC)cc(OC)c2)CC1,i,2%,1e-09,i,1.4%
Cc1ccnc(SCC(=O)Nc2oc(-c3ccccc3)c(-c3ccccc3)c2C#N)n1,i,?,2.8e-09,i,-0.4%
CCc1cccc(N(C)C(N)=Nc2cccc3ccccc23)c1,i,?,1e-09,i,-2.1%
O=C(O)c1cccn1Cc1ccccc1F,i,25%,3.1e-08,i,-1.0%
CCOC(=O)c1ccc(NC2c3ccccc3C(=O)N2c2cccnc2)cc1 (centres undefined),.,?,.,.,-3.8%
COc1ccc(C(=O)N2CCC(C(=O)Nc3cccc(C)c3)CC2)cc1OC,.,3%,.,.,3.6%
COC(=O)C1CCN(C(=O)C2CCCCC2)CC1,i,2%,1.2e-08,i,-0.3%
CCOc1ccc(-n2cc(C(=O)N3CCN(C)CC3)c3cc(OC)c(OC)cc3c2=O)cc1,i,?,2.4e-09,i,0.4%
CN(C)CCCNC(=O)CC(c1ccc(F)cc1)c1ccco1 (centres undefined),i,0%,3.3e-09,i,1.8%
COc1ccc(NS(=O)(=O)c2c(C)[nH]c(=O)[nH]c2=O)c(OC)c1,i,-2%,1e-09,i,1.5%
Cn1c2ccccc2c2nnc(SCc3ccc4nonc4c3)nc21,i,26%,2.8e-09,i,0.2%
N#Cc1c(N)nc(SCC(=O)NC2CCCCC2)c(C#N)c1-c1ccc(Cl)cc1,i,0%,1.3e-08,i,0.3%
CCN1CCN(c2ncnc3c2sc(=S)n3-c2ccccc2)CC1,.,2%,.,.,-1.6%

# Gathered by group, the entries above containing a COOH group (2)
SMILES,A488 autofl,TSHR ag,A647 fluor,Resorufin fluor,AID923
CC(Sc1nc(N2CCCCC2)c2c(c1C#N)CCCC2)C(=O)O (centres undefined),i,.,1.3e-09,i,.
O=C(O)c1cccn1Cc1ccccc1F,i,25%,3.1e-08,i,-1.0%

# The listing continues:
SMILES,A488 autofl,TSHR ag,A647 fluor,Resorufin fluor,AID923
O=C(NCCN1C(=O)CCC1=O)c1ccncc1,i,5%,1e-09,i,-0.7%
CC1(C)N=C(N)N=C(N)N1c1cccc(CSc2ccccc2)c1,i,2%[11.4 µM],4.8e-09,i,-2.0%[11.5 µM]
Cn1nnnc1SCC(=O)NC(=O)Cc1ccccc1,i,-1%,1e-09,i,1.0%
COC(=O)NC(/C(C(=O)OC)=C(\C)NCc1ccccc1)c1ccc(F)cc1 (centres undefined),.,?,.,.,-0.5%[11.5 µM]
CCOc1ccc(CCNC(=O)C2CCN(c3nnc(-n4cccc4)s3)CC2)cc1OCC,i,5%,1.1e-09,i,-2.4%
O=C(NC1CCCCCCC1)C1CCCN(S(=O)(=O)c2cnc[nH]2)C1 (centres undefined),.,?,.,.,1.0%
COc1ccc(NS(=O)(=O)c2ccc3oc(Nc4ccc5c(c4)OCCO5)nc3c2)cc1,i,-12%,1e-09,i,-3.2%
O=C(C1CC(=O)N(C2CCCC2)C1)N1CCN(c2ccc(F)cc2)CC1 (centres undefined),.,3%,.,.,-0.3%
Cc1ccc(-c2cc(C(F)(F)F)n3ncc(C(=O)NCc4ccco4)c3n2)cc1,.,10%[11.4 µM],.,.,-2.3%
Cc1cc2c(cc1C)NC1(C(=O)Nc3ccccc31)C1=C(CC(C)(C)CC1=O)N2 (centres undefined),i,-15%,9.1e-09,i,-3.1%
COc1ccc(N2CCN(C(=O)CN3C(=O)C4CC=CCC4C3=O)CC2)cc1 (centres undefined),i,?,1e-09,i,-0.4%
CCOC(=O)c1ccc(COC(=O)CCc2nc3ccccc3[nH]c2=O)o1,i,-5%,6.8e-09,i,-0.6%
CC(C)(C)NC(=O)c1cccc(NC(=O)c2ccc(NC(=O)c3ccco3)cc2)c1,i,-3%,1e-09,i,1.9%
CCn1ccnc1C(O)c1cccc(OC)c1 (centres undefined),.,0%,.,.,5.0%
Cc1ccc(NC(=O)c2cc(N3CCOCC3)nc3ccccc23)cc1,i,.,1e-09,i,.
CCC(=O)Nc1c(C#N)c2nc3ccccc3nc2n1C1CCCCC1,i,.,1e-09,i,.
Nc1c(C(=O)NC2CC2)c2nc3ccccc3nc2n1-c1ccc2c(c1)OCO2,i,-17%,5.3e-09,i,17%
COC(=O)c1ccccc1N1C(=O)C2C(C1=O)[C@H]1C=C[C@@H]2C1 (some centres undefined),i,12%,2.7e-08,i,-1.4%
CC(C)=CCC/C(C)=C/CO/N=C1/C[C@@H](O)[C@@H](O)[C@@H]2[C@@H]3C(=O)N(C4CCCCC4)C(=O)[C@H]3CC[C@H]12,.,-6%[11.4 µM],.,.,-0.7%[11.5 µM]
COc1cccc(NC(=O)N2CCC(C(=O)Nc3ccc(C)cc3C)CC2)c1,i,?,2e-09,i,-1.3%
COC(=O)C1(CC(C)C)C=C2C(=C(C)C(=O)C2C)CN1 (centres undefined),.,0%,.,.,3.4%
O=C(Nc1ccc2nc(-c3ccc(Br)o3)[nH]c2c1)c1ccco1,i,2%,1.3e-09,i,-0.1%
O=C(CC1(O)C(=O)N(C/C=C/c2ccccc2)c2ccccc21)c1ccccn1 (centres undefined),i,.,1e-09,i,-0.9%
COC(=O)CN(c1ccc2c(c1)OCCO2)S(=O)(=O)c1ccccc1,i,.,3.1e-08,i,-0.2%
S=c1[nH]nc(-c2ccccc2)n1Cc1ccccc1,i,.,1.9e-08,i,.
COCCn1c(=O)c(CCc2ccccc2)nc2cnc(N3CCN(C)CC3)nc21,i,?,1.3e-08,i,18%
CSc1nc2ccc(Nc3nc(N4CCOCC4)nc(N4CCOCC4)n3)cc2s1,.,4%[11.4 µM],.,.,-1.8%
COc1ccc(C(=O)Nc2ccc(-c3cn4ccsc4n3)cc2)cc1S(=O)(=O)N1CCOCC1,i,-4%,1.6e-08,i,-2.7%
O=C(Nc1cccc(F)c1)N1CCCC2(CCN(C(=O)c3ccncc3)CC2)C1,i,0%,2.4e-08,i,-1.5%
CCCCCCSc1nsc(NC(C)=O)n1,i,-8%,1.3e-08,i,0.9%

# Random excerpt: four entries already listed, in no set order.
SMILES,A488 autofl,TSHR ag,A647 fluor,Resorufin fluor,AID923
Nc1c(C(=O)NC2CC2)c2nc3ccccc3nc2n1-c1ccc2c(c1)OCO2,i,-17%,5.3e-09,i,17%
COc1ccc(C(=O)Nc2ccc(-c3cn4ccsc4n3)cc2)cc1S(=O)(=O)N1CCOCC1,i,-4%,1.6e-08,i,-2.7%
COc1cccc(NC(=O)N2CCC(C(=O)Nc3ccc(C)cc3C)CC2)c1,i,?,2e-09,i,-1.3%
S=c1[nH]nc(-c2ccccc2)n1Cc1ccccc1,i,.,1.9e-08,i,.

# Additional compounds
SMILES,A488 autofl,TSHR ag,A647 fluor,Resorufin fluor,AID923
NC(=O)C1CCN(C(=O)C2CCN(S(=O)(=O)c3ccccc3)CC2)CC1,.,-6%,.,.,0.9%
O=C(CCCCCN1C(=O)CCC1=O)Nc1ncn[nH]1,i,0%,1e-09,i,1.4%
Cc1cccn2c(=O)c(C=Nc3ccccc3)c(NCCO)nc12,i,.,4.8e-09,i,8.5%
CCOC(=O)C(CC)n1cnc2c(cnn2-c2ccc(Cl)cc2)c1=O (centres undefined),i,13%,1e-09,i,-0.1%
O=C(c1cn(CC(=O)N2CCCC2)c2ccccc12)C1CCCCC1,i,?,4.9e-08,i,0.9%
CC12CCC(C(=O)NCCN3CCCCC3)(CC1=O)C2(C)C (centres undefined),i,3%,4.1e-08,i,-1.2%
COc1ccccc1N1CCN(C(=O)CN(c2cc(C)cc(C)c2)S(C)(=O)=O)CC1,i,2%,1.2e-08,i,0.1%
COc1ccc(-n2c(Cc3cccn3C)nnc2SCC(=O)Nc2ccccc2C)cc1,.,11%,.,.,-1.1%
COc1ccc2[nH]c3c(NCCN4CCCCC4)ncnc3c2c1,i,-4%,2.9e-08,i,-1.2%
CC(C)OCCCNc1nc2c([nH]1)c(=O)n(C)c(=O)n2C,i,-6%,5.3e-08,i,0.5%
CC(=O)CC(C)C,.,-5%,.,.,-1.7%
O=C(OCc1nc(-c2ccccc2)oc1COC(=O)c1ccco1)c1ccco1,i,?,3.4e-09,i,2.2%
COc1ccccc1-c1nccc(-n2ccnc2)n1,i,12%,1e-09,i,0.7%
COc1cc(C2SCCCCCCCCCCSC(c3ccc(O)c(OC)c3)SCCCCCCCCCCS2)ccc1O (centres undefined),i,.,1e-09,i,-0.9%[11.5 µM]
COc1ccc(CCN2CC34C=CC(O3)C(C(=O)NCc3ccccc3)C4C2=O)cc1OC (centres undefined),i,20%,3e-08,i,1.3%
CCCCCc1c(O)c2ccccc2[nH]c1=O,i,4%,1e-09,i,0.5%
CCCn1c(SCC(=O)NCCc2ccc(Cl)cc2Cl)n[nH]c1=O,i,9%,7.7e-09,i,-0.9%
Cc1ccc(CNC(=O)c2ccc(CN3CCOCC3)cc2)cc1,.,7%,.,.,-0.5%
CCC1CCC(NC2CCCCNC2=O)CC1 (centres undefined),.,-2%,.,.,4.2%
C=CCn1c(SC(CCO)C(=O)NCc2ccco2)nc2sc3c(c2c1=O)CCC3 (centres undefined),.,-2%,.,.,0.2%
NC(=NC1C2CC3CC(C2)CC1C3)Nc1ccc(I)cc1 (centres undefined),.,8%,.,.,-1.1%
Cc1ccc(OCn2c(=O)sc3ccccc32)cc1,i,?,5.3e-09,i,-0.9%
N#CCCn1c(=O)cnc2cnc(OCc3ccccc3)nc21,i,-5%,1e-09,i,4.2%
CC1(C)C2CCC(C2)C1(C)NC(=O)CN1CCOCC1 (centres undefined),i,1%,1.3e-08,i,0.3%

# 2 compounds from above, reduced to A488 autofl, TSHR ag and A647 fluor:
Molecule	A488 autofl	TSHR ag	A647 fluor
CCCn1c(SCC(=O)NCCc2ccc(Cl)cc2Cl)n[nH]c1=O	i	9%	7.7e-09
Cc1ccc(CNC(=O)c2ccc(CN3CCOCC3)cc2)cc1	.	7%	.

# From PubChem BioAssay

# A portion of the library. The share of hits here may be higher or lower than overall.
